VDR inhibitor: Inhibitors of the vitamin D receptor (VDR): qHTS | Vitamin D3 receptor (Homo sapiens), P11473 | VDR-SRC2-3 peptide fluorescence polarization, 2 h | Potency, µM, without a hit: max response, negative = inhibition, most hits filed as inhibitors | 0.93% of 400,000 active; active = well fitted inhibition curve with a large enough effect; inconclusive = small, poorly fitted or top-dose-only effect, or another doubt; inactive = no such curve, though single readings can be large or run the other way; note: series mostly up to about 120 µM
Target sequence (P11473 whole entry, looked up): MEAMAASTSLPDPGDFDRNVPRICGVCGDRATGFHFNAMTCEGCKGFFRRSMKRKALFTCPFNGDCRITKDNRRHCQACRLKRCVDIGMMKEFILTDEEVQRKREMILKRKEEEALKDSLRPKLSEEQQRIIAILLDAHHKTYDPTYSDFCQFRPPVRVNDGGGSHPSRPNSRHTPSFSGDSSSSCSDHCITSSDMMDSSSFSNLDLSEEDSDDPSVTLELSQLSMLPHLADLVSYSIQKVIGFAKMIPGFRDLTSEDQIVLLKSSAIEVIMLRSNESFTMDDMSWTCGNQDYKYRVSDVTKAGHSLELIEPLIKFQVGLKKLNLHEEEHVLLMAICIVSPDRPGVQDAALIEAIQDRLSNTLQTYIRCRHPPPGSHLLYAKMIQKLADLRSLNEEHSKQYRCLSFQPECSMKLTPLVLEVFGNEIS
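The screen uses fluorescence polarization to detect compounds that interfere with recruitment of the SRC2-3 coactivator peptide to VDR; plates are read after 2 h at room temperature.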
* marks the source's active call; other numbers are inactive results; [ ] = remark or other dose. % is set by controls: 0 for no effect and ±100 for the full control effect; potency is the fitted concentration of half-maximal effect. An excerpt. The share of hits here may be higher or lower than overall.

Start of the data: the first 5 compounds as a preview:
Screening NS(=O)(=O)c1cccc(NC(=O)C2CC(=O)N(Cc3ccco3)C2)c1 (stereo not given) returned VDR inhibitor -7%.
For Cc1cc(=O)c2c(o1)CC(C)(C)CC2=O the results were VDR inhibitor -6%.
For COc1ccc(/C(C)=N/NC(=O)c2ccc(NS(=O)(=O)c3cccs3)cc2)cc1 the results were VDR inhibitor -3%.
For Cc1cc(C)cc(NC(=O)c2ccc3c(c2)nnn3C2CCCC2)c1 the results were VDR inhibitor -5%.
Cc1ccc(-n2c(=O)c3sccc3n(CC(=O)N3CCCC3)c2=O)cc1 was read as VDR inhibitor 1%.

All compounds of this part (from the top)
Screening NS(=O)(=O)c1cccc(NC(=O)C2CC(=O)N(Cc3ccco3)C2)c1 (stereo not given) returned VDR inhibitor -7%.
For Cc1cc(=O)c2c(o1)CC(C)(C)CC2=O the results were VDR inhibitor -6%.
For COc1ccc(/C(C)=N/NC(=O)c2ccc(NS(=O)(=O)c3cccs3)cc2)cc1 the results were VDR inhibitor -3%.
For Cc1cc(C)cc(NC(=O)c2ccc3c(c2)nnn3C2CCCC2)c1 the results were VDR inhibitor -5%.
Cc1ccc(-n2c(=O)c3sccc3n(CC(=O)N3CCCC3)c2=O)cc1 was read as VDR inhibitor 1%.
`COc1ccc(OC)c(C2NC(=S)NC(C)=C2C(=O)Nc2ccccn2)c1` (stereo not given) gave VDR inhibitor -16%.
Cc1cccc(CC(=O)N2CCN(C(=O)c3ccco3)CC2)c1 was read as VDR inhibitor 12%.
For COc1ccc(NCc2ccc([N+](=O)[O-])s2)c(OC)c1 the results were VDR inhibitor 2%.
For COc1ccc(CNC(=O)c2cc3c(=O)oc4ccc(C)cc4c3s2)c(OC)c1 the results were VDR inhibitor -26%.
Screening Cc1nn(-c2ccc(Cl)cc2)c(NC(=O)C(C)C)c(-c2ccccc2)c1=O returned VDR inhibitor -18%.
Screening CN(Cc1ccc(F)cc1Cl)S(=O)(=O)c1cccs1 returned VDR inhibitor 4%.
O=C1CCN(Cc2ccccc2)CCN1[C@H](CSc1ccccc1)Cc1ccccc1 was read as VDR inhibitor -25%.
O=C1CSC(c2ccccc2F)N1CCN1CCCCC1 (stereo not given) was read as VDR inhibitor 9%.
Screening COc1ccc(N(C(=O)c2ccc(C(C)(C)C)cc2)S(=O)(=O)c2ccc(Cl)cc2)cc1 returned VDR inhibitor -6%.
`COCc1ccc(C(=O)N(C)C2CCCN(Cc3ccccc3F)C2)o1` (stereo not given) gave VDR inhibitor -5%.

6 compounds already listed, sorted by length of the SMILES, highest first.
Screening COc1ccc(N(C(=O)c2ccc(C(C)(C)C)cc2)S(=O)(=O)c2ccc(Cl)cc2)cc1 returned VDR inhibitor -6%.
For COc1ccc(/C(C)=N/NC(=O)c2ccc(NS(=O)(=O)c3cccs3)cc2)cc1 the results were VDR inhibitor -3%.
For COc1ccc(CNC(=O)c2cc3c(=O)oc4ccc(C)cc4c3s2)c(OC)c1 the results were VDR inhibitor -26%.
O=C1CCN(Cc2ccccc2)CCN1[C@H](CSc1ccccc1)Cc1ccccc1 was read as VDR inhibitor -25%.
For Cc1cc(C)cc(NC(=O)c2ccc3c(c2)nnn3C2CCCC2)c1 the results were VDR inhibitor -5%.
For COc1ccc(NCc2ccc([N+](=O)[O-])s2)c(OC)c1 the results were VDR inhibitor 2%.

Additional entries follow:
Screening CCOc1ccc(NC(=S)N2CCC(C(N)=O)CC2)cc1 returned VDR inhibitor -9%.
Screening COc1ncc2nc(-c3ccc(F)cc3)c(=O)n(C3CC3)c2n1 returned VDR inhibitor -3%.
`Cc1ccc(C(=O)c2cn(Cc3ccccc3C)c3nc(C)ccc3c2=O)cc1` gave VDR inhibitor 1%.
COc1ccc(CNC(=O)COC(=O)c2ccccc2OCC(=O)Nc2ccc(SC(F)F)cc2)cc1 was read as VDR inhibitor 7%.
COc1cccc(C(C(=O)NCc2ccco2)N(C(=O)Cn2nnc3ccccc32)C2CC2)c1OC (stereo not given) was read as VDR inhibitor -5%.
Screening CCn1c2ccccc2c2cc(/C=N/n3c(-c4cc(C)[nH]n4)n[nH]c3=S)ccc21 returned VDR inhibitor -2%.
COc1ccc(NC(=O)CSc2ccc3nnc(-c4cccnc4)n3n2)cc1OC was read as VDR inhibitor 5%.
CCN1C(=O)/C(=C\c2cccn2-c2ccc([N+](=O)[O-])cc2)N(CC)C1=S was read as VDR inhibitor -7%.
`COc1ccccc1Nc1ccc(C(=O)NCc2cccs2)cn1` gave VDR inhibitor 14%.
`COCCN(C(=O)COC(=O)c1cc2ccccc2cc1OC)c1c(N)n(Cc2ccccc2)c(=O)[nH]c1=O` gave VDR inhibitor -20%.
CC1=C(n2nnc([N+](=O)[O-])n2)C(c2cccnc2)C(C#N)=C(N)O1 (stereo not given) was read as VDR inhibitor 11%.
For Cc1ccc(NC(=O)c2cnn3c(C(F)F)cc(-c4ccccc4)nc23)c(C)c1 the results were VDR inhibitor -10%.
Screening CC(=O)N(c1nnc(-c2cccc(C)c2)s1)C1CCCC1 returned VDR inhibitor 4%.
Cc1ccc(C(=O)OCC(=O)N2CCC(c3ccccc3)=N2)c(C)c1 was read as VDR inhibitor -5%.
CC1CCN(c2nc3c(=O)[nH]c(N)nc3n2[C@@H]2O[C@H](CO)[C@@H](O)[C@H]2O)CC1 was read as VDR inhibitor 0%.
For Cc1ccc2c(=O)cc(CSc3nnc(-c4ccccc4)n3C)[nH]c2c1C the results were VDR inhibitor 2%.
Screening CC(C)(C)NC(=O)NC(=O)CN1CCN(c2ncc(C(F)(F)F)cc2Cl)CC1 returned VDR inhibitor 3%.
CCOC(=O)N1CCN=C1SCc1ccc(C(F)(F)F)cc1 was read as VDR inhibitor 7%.
Cc1ccc(NC(=O)CSc2ncccn2)c([N+](=O)[O-])c1 was read as VDR inhibitor -11%.
`CCOC(=O)c1nc(C)nc(Sc2n[nH]c(-c3cc(Cl)cc(Cl)c3)n2)c1C` gave VDR inhibitor 20%.
For O=C(NC1CCCCCC1)C1CCN(c2nc3ccccc3o2)CC1 the results were VDR inhibitor 21%.
`CCOC(=O)CC1C(=O)NCCN1S(=O)(=O)c1ccc(Cl)cc1Cl` (stereo not given) gave VDR inhibitor 16%.
Screening CCOc1ccccc1NC(=O)C1CCCN1S(=O)(=O)c1ccc2c(c1)C(C)(C)C(=O)N2C (stereo not given) returned VDR inhibitor 3%.
Screening CC(=O)N1CCC(=NNc2nc3ccccc3s2)CC1 returned VDR inhibitor 8%.
`COc1ccc(NC(=S)NCCSc2ccc(C)cc2)c(OC)c1` gave VDR inhibitor -10%.
For CCOC(=O)CCCC(=O)Nc1ncnc2c1C(c1ccccc1)c1c(ccc3ccccc13)O2 (stereo not given) the results were VDR inhibitor 1%.
For CC(=O)c1ccc2c(c1)OCCOCCOCCO2 the results were VDR inhibitor -1%.
Screening CCC(C)NC(=O)CCSCCC(=O)NC(C)CC (stereo not given) returned VDR inhibitor 2%.
`O=C(Nc1ccccn1)NC(C(F)(F)F)C(F)(F)F` gave VDR inhibitor 4%.
`CCOc1ccc(C(=O)NCC(c2ccc3c(c2)OCO3)N2CCOCC2)cc1` (stereo not given) gave VDR inhibitor -5%.
Screening COc1ccc(S(=O)(=O)N(C)CC(=O)N2CCCC2)cc1OC returned VDR inhibitor 9%.
`O=[N+]([O-])c1ccc2c(c1)C=C1CCCCC1(N1CCCC1)O2` (stereo not given) gave VDR inhibitor -19%.
Clc1ccc(CONc2ncnc3nonc23)c(Cl)c1 was read as VDR inhibitor -12%.
`CSc1nnc2c(n1)c(C)nn2-c1cccc(C)c1` gave VDR inhibitor -10%.
CCN=C1S/C(=C\c2cn(CC)c3ccccc23)C(=O)N1CC was read as VDR inhibitor 9%.
`CC(OC(=O)C(C)N1C(=O)C2C3C=CC(C4CC34)C2C1=O)C(=O)c1ccccc1` (stereo not given) gave VDR inhibitor 2%.
Screening CCNC(=S)N(CCc1cccc(C)c1)Cc1cc2cc(OC)c(OC)cc2[nH]c1=O returned VDR inhibitor -15%.
For Cc1ccc(NC2CCCN(C(=O)CSc3ccccn3)C2)cc1C (stereo not given) the results were VDR inhibitor inconclusive.
COc1ccccc1C1N=C(Nc2nc3ccccc3o2)NC2=C1C(=O)CC(C)(C)C2 (stereo not given) was read as VDR inhibitor -3%.
For COc1cc(NC(=O)CN(C)S(=O)(=O)c2ccc3c(c2)CCCC(=O)N3)cc(OC)c1OC the results were VDR inhibitor 6%.
`CC1(C(=O)NC(=S)N(Cc2ccccc2)c2ccccn2)CC1(Cl)Cl` (stereo not given) gave VDR inhibitor inconclusive.
For COc1ccc(CN(C)C(=O)Cn2cnc3c(NCc4ccccc4)ncnc32)cc1OC the results were VDR inhibitor 9%.
For COc1ccc(CCNC(=O)C2CCN(S(=O)(=O)c3cccc4nonc34)CC2)cc1OC the results were VDR inhibitor 48%[activator].
For CCc1nc(Nc2ccc3nccnc3c2)c2oc3ccccc3c2n1 the results were VDR inhibitor -15%.
For CC1(c2ccc3ccccc3c2)NC(=O)N(CC(=O)NCC(C)(C)N2CCOCC2)C1=O (stereo not given) the results were VDR inhibitor 8%.
For CCOc1ccc(C(=O)C[n+]2ccc(C(=O)NCc3ccccc3)cc2)cc1 the results were VDR inhibitor -16%.
`CC(C)C(NS(=O)(=O)c1ccc2c(c1)oc(=O)n2C)C(=O)NCc1ccccc1` (stereo not given) gave VDR inhibitor -4%.
For O=[N+]([O-])c1ccccc1/C=N/NC1=NS(=O)(=O)c2ccccc21 the results were VDR inhibitor -11%.
For COC(=O)c1ccccc1NC(=S)N(Cc1ccc2c(c1)OCO2)Cc1cc2cc(OC)ccc2[nH]c1=O the results were VDR inhibitor 12%.
Screening Cc1ccc(NC(=O)C(OC(=O)c2ccccc2Cl)c2ccccc2)cc1Cl (stereo not given) returned VDR inhibitor 8%.
For Cc1ccc(NC(=O)CCCn2c(=O)c3cccn3c3cccnc32)cc1C the results were VDR inhibitor 8%.
`Cc1cccc(NC(=O)CN(C)S(=O)(=O)c2cnc[nH]2)c1` gave VDR inhibitor 3%.
Screening CC(O)CN(C)CC/C=C1/c2ccccc2CSc2ccccc21 (stereo not given) returned VDR inhibitor -14%.
`Cc1ccc(S(=O)(=O)NCCc2sc3nc(-c4ccccc4)nn3c2C)cc1C` gave VDR inhibitor 12%.
`CCOc1ccc(NS(=O)(=O)c2ccc3[nH]c4c(c3c2)CCCCC4)cc1` gave VDR inhibitor 13%.
`O=C1c2ccccc2C(Nc2ccccc2)N1c1ccc(Cl)cn1` (stereo not given) gave VDR inhibitor 1%.
For Cc1ccc(S(=O)(=O)c2nnn3c2nc(NCc2ccccc2Cl)c2sccc23)cc1 the results were VDR inhibitor 17%.
`CCN1C(=O)/C(=C\c2ccc(-c3ccc([N+](=O)[O-])cc3OC)o2)SC1=Nc1cccc(C(=O)O)c1` gave VDR inhibitor inconclusive.
Nc1nnc(Cc2ccc(F)cc2)s1 was read as VDR inhibitor 1%.
`Cc1sc(NC(=S)NC(=O)C2CCCCC2)c(C(N)=O)c1C` gave VDR inhibitor 1%.
For Cc1nn(Cc2ccc(C(=O)NN)o2)c(C)c1Cl the results were VDR inhibitor -5%.
`Cc1ccc(CCNC(=O)CCn2nc(-c3ccc(C)cc3)ccc2=O)cc1` gave VDR inhibitor -3%.
For O=C(Oc1ccc(Br)cc1)C1CC(=O)N(c2ccc(F)cc2)C1 (stereo not given) the results were VDR inhibitor -17%.
`COc1ccc2[nH]c(C)c(CN3CCCCC3)c(=O)c2c1` gave VDR inhibitor -9%.
For CCCN(CCC)CC(=O)N1CC(=O)Nc2ccccc21 the results were VDR inhibitor -7%.
CCOc1ccc(CC(=O)Nc2c(C(N)=O)oc3ccc(Br)cc23)cc1OCC was read as VDR inhibitor 0%.
`Cn1c(SCC(=O)NCc2ccc3c(c2)OCO3)nnc1-c1cc2ccccc2cc1O` gave VDR inhibitor 3%.
`CC(=O)N1CCN(c2ccc(NC(=O)c3ccc(C)c([N+](=O)[O-])c3)cc2)CC1` gave VDR inhibitor 6%.
Screening COc1ccccc1NC(=O)N1CCCC(c2nc3c(nnn3Cc3ccc(C)cc3)c(=O)[nH]2)C1 (stereo not given) returned VDR inhibitor -2%.
Screening Cc1ccc(CNCC2CCCO2)s1 (stereo not given) returned VDR inhibitor 18%.
`O=C(c1ccco1)N1CCN(C2CC(=O)N(c3ccc(C(F)(F)F)cc3)C2=O)CC1` (stereo not given) gave VDR inhibitor 8%.
For C=CCN(CC=C)CCOc1cccc2ccccc12 the results were VDR inhibitor -7%.
Screening CC(C)N(CCCNC(=O)c1ccc(N2CCCC2=O)cc1)Cc1ccccc1 returned VDR inhibitor -21%.
CCn1c(C)nc2cc(C(=O)NNS(=O)(=O)c3ccc(C)cc3C)ccc21 was read as VDR inhibitor 26%.
Screening CCc1c(C)sc(NC(=O)CSc2nc3c(c(C(F)(F)F)n2)CCc2ccccc2-3)c1C#N returned VDR inhibitor -14%.
COc1ccc(CNc2ccncc2)c(OC)c1OC was read as VDR inhibitor -4%.
`CCOc1ccccc1C(=O)Nc1cc(OC)ccc1OC` gave VDR inhibitor 15%.
For CCOC(=O)Cc1nnc(NC(=O)C(CC)Sc2nc(C)cc(C)n2)s1 (stereo not given) the results were VDR inhibitor -11%.
`COc1ccccc1NS(=O)(=O)c1cccc(C(=O)N2CCCC2)c1` gave VDR inhibitor 8%.
`COc1cccc2c1SCc1ccccc1C2CC(N)=O` (stereo not given) gave VDR inhibitor -3%.
`COc1ccc(NC(=O)c2ccco2)c(NC(=O)c2ccc([N+](=O)[O-])cc2)c1` gave VDR inhibitor 18%.
For Cc1cc(C)n(CCNC(=O)C2CCC(=O)N(Cc3ccc(Cl)cc3)C2)n1 (stereo not given) the results were VDR inhibitor -11%.
Screening O=C(N/N=C\c1ccc[nH]1)c1cncc(Br)c1 returned VDR inhibitor 1%.
N#Cc1nc(Cc2ccccc2)oc1N1CCC(Cc2ccccc2)CC1 was read as VDR inhibitor -1%.
`Cc1ccccc1C1CC(=O)Oc2cc(C)c(Cl)c(C)c21` (stereo not given) gave VDR inhibitor -1%.
`Cc1ccc(N2CC(=O)N(c3ccc(C)cc3)CC2=O)cc1` gave VDR inhibitor 5%.

Screening results as filed in PubChem.
